PMP22 txn prim = modulates PMP22 transcription in S16 Schwann cells. S16 Pmp22-F2sN Schwann cells (luciferase reporters placed in the Pmp22 gene), FLuc/NLuc coincidence luminescence, 24 h. Potency, µM (titrated, usually from 57.5 µM), for inactives: at the top dose activity change, negative = inhibition, usual class: inhibitors. 43,000 tested, 2% active. AID 1508649; active = clear falling dose curves in both reporters; inconclusive = both reporters move, but less clearly or upward; inactive = either reporter flat; the % is the NLuc reporter signal; further: on the % scale 0 is the no-effect control and ±100 the full control effect; some results filed as inactive show a strong effect at the top dose
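S16 Schwann cells carrying FLuc/NLuc coincidence reporter in the Pmp22 3' UTR treated with compound 24 h at 37C; FLuc then NLuc luminescence read sequentially by dual-luciferase reagents.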
HTT promoter inh = inhibitors of huntingtin promoter activity; HEK293 HTT promoter firefly luciferase reporter (activity 0% = vehicle and -100% = no light), 24 h; Potency, µM (highest dose often 57.5 µM), without a hit: at the top dose activity change, negative = inhibition, most hits filed as inhibitors; 48,000 tested, 0.93% active; active means well fitted inhibition curve with a large enough effect; inconclusive means small, poorly fitted or top-dose-only effect; inactive means no such curve, though single readings can be large or run the other way; further: nearly all actives have a fitted effect of over 50% in size
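HEK293 luciferase promoter-reporter cells (2,500/well) plated 24 h, then compounds added at up to 57.5 uM final for 24 h at 37 °C. Firefly luminescence by Dual-Glo, normalized to vehicle (0%) and zero RLU (-100%).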
* marks the source's active call; other numbers are inactive results; ? = inconclusive; / = not tested or not shown; [ ] = dose if it differs, or a comment. Potency means the concentration at half of the fitted maximal effect.

SMILES | PMP22 txn prim | HTT promoter inh
Cc1ccccc1-n1c(SCc2ccc(Cl)cc2)nc2[nH]ncc2c1=O | ? | ?
Cc1csc2nc(COc3ccccc3NC(=O)c3ccco3)cc(=O)n12 | 1% | -4%
CCc1nnc2c3ccccc3nc(Nc3ccccc3OC)n12 | -21% | -10%
Cc1ccc(NC(=O)C(=O)NCC(c2cccnc2)N2CCN(c3ccccc3F)CC2)cc1Cl (centres undefined) | ? | ?
O=C(c1ccc2c(c1)N(Cc1ccccc1)C(=O)c1ccccc1S2(=O)=O)N1CCC(Cc2ccccc2)CC1 | ? | -9%
Cc1ccc(NC(=O)c2oc3c(c2C)-c2[nH]ncc2CC3)c(Cl)c1 | -18% | 74%[activator]
CSc1nnc2n(-c3cccc(C)c3)c(=O)c3c4c(sc3n12)CCCC4 | -10% | -4%
Cc1cc(C)cc(NS(=O)(=O)c2ccc(-c3cc(C)no3)s2)c1 | -12% | ?
Cn1ccc2c(OCC(=O)Nc3ccc([N+](=O)[O-])cc3)cccc2c1=O | -12% | -33%
COc1cc(NC(=O)CSC2=Nc3ccccc3N=C(c3ccc(F)cc3)C2)cc(OC)c1 | -11% | -5%
Cc1ccc2nc(-c3cccnc3)c(Nc3ccc(C(C)C)cc3)n2c1 | 17% | -25%
CCOc1cc(Cn2c(-c3ccc(O)c(OCC)c3)nc3ccccc32)ccc1O | -3% | -8%
CC(=O)c1ccc(N2CCN(C3C(=O)c4ccccc4N3C(C)=O)CC2)cc1 (centres undefined) | 7% | -9%
Nc1ncc(S(=O)(=O)NCc2ccc(Cl)cc2)cn1 | -1% | -4%
CCOC(=O)C1=C(CN2CCN(c3ccc(OC)cc3)CC2)NC(=O)NC1c1ccc(Cl)cc1 (centres undefined) | ? | ?
CCc1ccc(-c2nc(CN3CCCC(C(=O)N4CCN(c5cc(Cl)ccc5C)CC4)C3)c(C)o2)cc1 (centres undefined) | ? | ?
CCCCN(Cc1cccs1)S(=O)(=O)c1cc(-c2cc(C)no2)ccc1C | ? | ?
COc1ccccc1N(CC(=O)NCCSCc1ccc(Cl)cc1)S(C)(=O)=O | 5% | -24%
COc1ccc(Cn2ccc3nc(C)c(C(=O)Nc4cccc(SC)c4)cc3c2=O)cc1 | -17% | ?
Cc1cc(C)cc(NC(=O)CSc2nc(=O)[nH]c3c2CCC3)c1 | 0% | -28%
CCOC(=O)c1c(C)[nH]c(C)c1S(=O)(=O)N(C)CC(=O)Nc1ccc(CC)cc1 | ? | -23%
CC(C)CCCC(C)N (centres undefined) | / | 17%
CC(=O)c1cccc(NC(=O)CSc2nc(=O)n(Cc3ccco3)c3c2CCC3)c1 | ? | 0%
COc1ccccc1-c1nc(SCC(=O)Nc2ccc(C)c(C)c2)n[nH]1 | ? | ?
COc1ccc(NC(=O)c2ccc3c(=O)n4nc(Nc5cccc(Cl)c5C)sc4nc3c2)cc1 | ? | -1%
O=C(c1ccc2c(c1)N(Cc1ccccc1F)C(=O)c1ccccc1S2(=O)=O)N1CCC(Cc2ccccc2)CC1 | -19% | -13%
FC(F)(F)c1ccc2c(c1)ncc1c(-c3ccccc3)nn(-c3ccccc3)c12 | -18% | 2%
COc1ccccc1C(=O)NC1(C(F)(F)F)NC(=O)N(CCc2ccccc2)C1=O (centres undefined) | -13% | -10%
CCOC(=O)c1c(C)[nH]c(C)c1S(=O)(=O)N1CCCC(C(=O)NCc2ccc(Cl)cc2)C1 (centres undefined) | -5% | -20%
COc1cccc2c1ncc1c(-c3ccc(C)cc3)nn(-c3ccc(F)cc3)c12 | -23% | 0%
CCc1cccc(NC(=O)CSc2ncccc2C(=O)Oc2ccccc2Cl)c1 | -87% | ?
CCOc1ccc(NC(=O)CC2C(=O)N(c3cccc(C)c3)C(=O)N2CCC2=CCCCC2)cc1 (centres undefined) | -25% | ?
CC(=O)c1ccc(NS(=O)(=O)c2ccc3[nH]c(=O)[nH]c3c2)cc1 | -6% | 41%[activator]
COc1ccc(OC(=O)c2cc(-c3ccc4c(c3)OCCO4)on2)cc1 | -16% | -3%
CCc1nn2c(=O)cc(COC(=O)c3ccc(NC(=O)c4cccs4)cc3)nc2s1 | -49% | -10%
COc1ccc(NC(=O)CSC2=Nc3ccccc3C3=NC(Cc4ccccc4)C(=O)N23)cc1Cl (centres undefined) | -12% | ?
CCOC(=O)CCN(c1ccccc1)S(=O)(=O)c1cc(-c2cc(C)no2)ccc1C | -30% | -28%
Cc1nc2cc(-c3ccccc3)nn2c(C)c1CCC(=O)NCCc1ccccc1 | -8% | 7.1µM*
COc1ccccc1Cc1nc2ccccc2nc1SCC(=O)N(C)c1ccc(F)cc1 | ? | -4%
CN(Cc1ccccc1)C(=O)C(=O)Nc1ccc2nc3n(c(=O)c2c1)CCCCC3 | -14% | -8%
Cc1cccc2c1-c1sc(C(=O)N3CCN(c4ccccc4)CC3)cc1CO2 | -8% | -1%
O=C(Nc1ccc(-c2nc3cc(Cl)ccc3o2)cc1)c1cc(Br)ccc1Cl | ? | -14%
CCOc1ccc(-c2nonc2NC(=O)COc2ccccc2)cc1 | 5% | -18%
CCC(=O)N1c2ccc(S(=O)(=O)CCC(=O)Nc3ccc(Br)c(C)c3)cc2CC1C (centres undefined) | ? | ?
O=C(Cn1ncc2c3ccccc3n(Cc3ccc(F)cc3)c2c1=O)NC1CCCCCC1 | -5% | -10%
COc1ccc(CC(=O)NCc2ccc3c(c2)CCN3C(=O)c2ccc(Cl)cc2)cc1 | 8% | -14%
COc1ccc(CCNC(=O)c2cnc3sc(N4CCCCCC4)nn3c2=O)cc1 | ? | -24%
Cc1ccccc1NC(=O)CCC(=O)N1CC(C)Sc2ccccc21 (centres undefined) | 0% | -23%
COCCCNC(=O)C1CCN(c2nc3ccc(C)cc3[nH]2)CC1 | 9% | 13%
COc1ccc(OC)c(C(=O)CN2C(=O)N(c3cc(C)cc(C)c3)S(=O)(=O)c3ccccc32)c1 | -16% | -20%
Cc1cccc(-n2ncc3c(Nc4c(C)cc(C)cc4C)ncnc32)c1 | -29% | ?
O=C(Nc1c(C(=O)N2CCN(c3ccccc3)CC2)oc2ccccc12)c1ccco1 | 2% | -32%
CCN1CCSc2ccc(C(=O)NCc3ccccc3Br)cc21 | ? | -20%
CCOC(=O)c1sc2ncn(CC(=O)Nc3ccc(C)cc3C)c(=O)c2c1C | -11% | -10%
CC(C)(CC(=O)OCC(=O)Nc1ccc(F)c(Cl)c1)CC1=NS(=O)(=O)c2ccccc2N1 | ? | ?
COc1ccccc1CNC(=O)c1cc2sccc2n1Cc1ccc(Cl)cc1 | -9% | -17%
Cc1ccc(-c2nn3c(=O)cc(CN4CCN(C(=O)Nc5cccc(C(F)(F)F)c5)CC4)nc3s2)cc1 | -14% | 4%
Cc1cc(C)cc(OCCSc2nc3ccc(NC(=O)c4ccc5c(c4)OCO5)cc3s2)c1 | -23% | -20%
CCC(C(=O)N1CCN(c2cc(C)ccc2C)CC1)n1nc(C)n2c(cc3occc32)c1=O (centres undefined) | ? | ?
Cc1nc(N2CCCC2)c2c(C(=O)N3CCN(c4ccc(F)cc4)CC3)c(C)oc2n1 | 14% | -13%

4 compounds from above, ordered by number of heavy atoms, highest first:
SMILES | PMP22 txn prim | HTT promoter inh
CC(C)(CC(=O)OCC(=O)Nc1ccc(F)c(Cl)c1)CC1=NS(=O)(=O)c2ccccc2N1 | ? | ?
COc1ccc(CC(=O)NCc2ccc3c(c2)CCN3C(=O)c2ccc(Cl)cc2)cc1 | 8% | -14%
CCOC(=O)c1sc2ncn(CC(=O)Nc3ccc(C)cc3C)c(=O)c2c1C | -11% | -10%
COCCCNC(=O)C1CCN(c2nc3ccc(C)cc3[nH]2)CC1 | 9% | 13%

(cont.)
SMILES | PMP22 txn prim | HTT promoter inh
COc1ccc(-c2noc(CCC(=O)Nc3ccccc3Cl)n2)cc1OC | -11% | -21%
COc1ccc2oc(=O)c(-c3nc4ccc(C)cc4[nH]3)cc2c1 | ? | 22%
C/C=C1\[C@H]2C=C(C)C[C@]1(N)c1ccc(=O)[nH]c1C2 | / | 4%
Cn1ccc2cc(S(=O)(=O)N3CCN(C(=O)Nc4ccccc4F)CC3)ccc21 | -11% | -9%
O=C(NCc1ccccc1Cl)c1cnc(N2CCOCC2)c2ccccc12 | -27% | -7%
COc1ccccc1CNC(=O)c1ccc(N2Cc3cccc(OC)c3Oc3ncccc32)s1 | ? | -1%
CCOc1ccc(CNC(=O)CCc2c(C)nn(-c3ccc(N4CCOCC4)nn3)c2C)cc1 | 23% | -14%
O=C(CSc1nncn2c1cc1sccc12)Nc1ccccc1C(F)(F)F | ? | -23%
CCOC(=O)c1cccc(NC(=O)c2oc3c(c2C)-c2[nH]ncc2CC3)c1 | ? | 42%[activator]
COC(=O)c1ccc(Nc2nc(-c3ccccc3Cl)nc3ccccc23)cc1 | ? | ?
Cc1ccc(C)c(N2CCN(S(=O)(=O)c3ccc4c(c3)C(C(C)C)C(=O)N4)CC2)c1 (centres undefined) | -40% | ?
CC1CCCN(CCCNC(=O)c2cc(Sc3ccc(F)cc3)nc3ccccc23)C1 (centres undefined) | ? | ?
COc1ccc(-c2csc3ncnc(Nc4ccc(OC)c(OC)c4)c23)cc1 | ? | ?
Cc1cccc(NC(=O)Cn2c(=O)n(CCC(C)C)c(=O)c3cccnc32)c1 | 6% | -6%
Cc1nn(CCCC(=O)NCc2cccc(F)c2)c(=O)c2nn(-c3ccccc3)c(C)c12 | -18% | -11%

The last seven compounds of the part above open the next one.
SMILES | PMP22 txn prim | HTT promoter inh
CCOC(=O)c1cccc(NC(=O)c2oc3c(c2C)-c2[nH]ncc2CC3)c1 | ? | 42%[activator]
COC(=O)c1ccc(Nc2nc(-c3ccccc3Cl)nc3ccccc23)cc1 | ? | ?
Cc1ccc(C)c(N2CCN(S(=O)(=O)c3ccc4c(c3)C(C(C)C)C(=O)N4)CC2)c1 (centres undefined) | -40% | ?
CC1CCCN(CCCNC(=O)c2cc(Sc3ccc(F)cc3)nc3ccccc23)C1 (centres undefined) | ? | ?
COc1ccc(-c2csc3ncnc(Nc4ccc(OC)c(OC)c4)c23)cc1 | ? | ?
Cc1cccc(NC(=O)Cn2c(=O)n(CCC(C)C)c(=O)c3cccnc32)c1 | 6% | -6%
Cc1nn(CCCC(=O)NCc2cccc(F)c2)c(=O)c2nn(-c3ccccc3)c(C)c12 | -18% | -11%
Cc1cc2cc3c(C)cc(=O)oc3c(C)c2o1 | / | ?
O=C(CN1N=C(c2ccc(Cl)cc2)CCC1=O)NCCc1ccc(Cl)cc1 | -21% | ?
O=C(Nc1cc2c(cc1C(=O)c1ccc(Br)cc1)OCCO2)c1ccc(Cl)cc1 | ? | -2%
CCC(CC)C(=O)N1c2ccccc2C(C)(c2ccccc2)CC1(C)C (centres undefined) | ? | ?
N[C@@H](COP(=O)(O)O)C(=O)O | / | 1%[25.2 µM]
CN1CCN(C(=O)c2ccc3c(c2)N(Cc2ccc(F)cc2)C(=O)c2ccccc2S3(=O)=O)CC1 | ? | -11%
CCOc1ccccc1NC(=O)c1c(NCc2ccc(OC)c(OC)c2OC)sc2c1CCC(C)C2 (centres undefined) | ? | -15%
Cc1ccccc1NCc1cccn1-c1nnc(N2CCC(C)CC2)s1 | -50% | -14%
O=C(O)c1ccc(NC(=O)c2cn(-c3ccccc3)nc2-c2ccc(Br)cc2)cc1 | -141% | -10%
Cc1cccc(-n2nc(C)c(C(=O)Nc3cc(C)ccc3C)c2-n2cccc2)c1 | -19% | ?
Nc1c(C(=O)Nc2ccc(OC(F)(F)F)cc2)sc2nc(-c3ccncc3)ccc12 | -20% | ?
Cc1ccc(OCC(=O)Nc2ccc(Cl)c(-c3nc4ncccc4o3)c2)cc1C | -57% | 5%
COc1ccc(Cc2nnc(C(=O)NCCCN3CCN(c4ccccc4F)CC3)o2)cc1OC | ? | ?
CC(C)C12CN3CC(C(C)C)(CN(C1)C3c1ccc(OCc3ccccc3)cc1)C2=O (centres undefined) | 10% | -3%
COc1ccc(C(=O)NNc2ncnc3c2cnn3-c2ccc(C)c(Cl)c2)cc1 | -12% | ?
CCOc1ccc(C(=O)Nc2c(C(=O)Nc3ccccc3OC)oc3ccccc23)cc1OCC | -20% | -1%
Cc1cn2c(=O)cc(COC(=O)c3ccc(NC(=O)c4ccc(F)cc4)cc3)nc2s1 | -6% | -29%
CN1CCN(CCCNC(=O)Cn2c(-c3cccs3)cc3cc(Cl)ccc32)CC1 | ? | ?
CCOc1ccccc1NC(=O)c1c(NCc2cccs2)sc2c1CCCCC2 | ? | ?
Cc1nn(CC(=O)Nc2cc(F)ccc2F)c(=O)c2cccn12 | -19% | 1%
COc1ccc(CNC(=O)Cc2c(C)c3cc4c(C)coc4cc3oc2=O)cc1OC | ? | -2%
Cc1ccc(C2c3c(-c4cc(C)ccc4O)n[nH]c3C(=O)N2Cc2ccco2)cc1 (centres undefined) | ? | -11%
CCOc1ccc(CN2C(=O)c3ccccc3Sc3ccc(C(=O)O)cc32)cc1 | ? | ?
Cc1cccc(NC(=O)CSc2nnc(CNC(=O)c3c(F)cccc3Cl)o2)c1C | -7% | -1%
CCc1ccc(NC(=O)NCCc2c(C)nn(C)c2C)cc1 | 30% | 33%[activator]
CCCc1nn2c(=O)cc(COC(=O)c3ccc4c(c3)OCO4)nc2s1 | 15% | -8%

Assay outcomes deposited in PubChem BioAssay by National Center for Advancing Translational Sciences (NCATS).
